FXIIa inh mix: factor XIIa (human) inhibition, mixture screen; purified FXIIa, fluorogenic substrate, pooled mixtures; P00748; inhibition, % at 5 µM; 0.2% of 62,000 active;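 further: 0% = enzyme without compound and 100% = no enzyme blank; some results filed as inactive read as strong as hits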
CatG inh: inhibitors of human cathepsin G; P08311; purified enzyme, AMC-tetrapeptide fluorescence, pooled mixtures; inhibition, % at 5 µM (by protocol); 0.2% of 62,000 active; AID 581;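 active means inhibition above 20% in each of the two mixture wells holding the compound; inactive means inhibition of 20% or less in either well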;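 further: 0% = enzyme control without mixture and 100% = blank lacking enzyme; strong numbers were not always called active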
C1s block: human complement C1s inhibition; P09871; purified C1s, fluorogenic AMC substrate, pooled mixtures; mean inhibition % of two 10-compound mixtures (stronger effect = higher value), % at 5 µM (by protocol); 0.16% of 62,000 active; AID 538;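 active means inhibition above 20% in each of the two 10-compound mixture wells holding the compound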;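 further: 0% = enzyme wells lacking compound mixture and 100% = no-enzyme blank wells; some compounds called inactive have numbers as strong as hits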
JNK3 blocker: blocks human JNK3 kinase activity. purified JNK3 kinase activity, HTS. AID 746. inhibition, % at 8 µM. 0.61% of 60,000 active; in the data active means inhibition above about 17%;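 further: 0% = DMSO and 100% = reference inhibitor; many of its hits are not listed in these tables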
Target sequence (P53779 whole entry, looked up): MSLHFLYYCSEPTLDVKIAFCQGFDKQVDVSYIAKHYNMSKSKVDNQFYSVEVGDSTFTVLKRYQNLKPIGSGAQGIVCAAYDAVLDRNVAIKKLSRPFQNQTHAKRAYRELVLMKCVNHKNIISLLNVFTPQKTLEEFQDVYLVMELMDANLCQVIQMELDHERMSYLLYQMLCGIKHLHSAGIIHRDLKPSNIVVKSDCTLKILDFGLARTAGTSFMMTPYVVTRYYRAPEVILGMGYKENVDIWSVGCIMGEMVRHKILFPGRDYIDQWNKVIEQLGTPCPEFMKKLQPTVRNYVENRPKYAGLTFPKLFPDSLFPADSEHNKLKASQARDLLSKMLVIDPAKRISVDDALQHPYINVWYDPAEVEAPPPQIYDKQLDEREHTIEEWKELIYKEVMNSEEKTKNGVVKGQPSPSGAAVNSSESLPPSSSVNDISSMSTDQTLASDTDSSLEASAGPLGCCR
CatS inh: blocks human cathepsin S protease activity. 0.06% of 62,000 active. inhibition, %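 (tested at 5 µM per compound within 10-compound mixtures)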. P25774. recombinant cathepsin S, AMC dipeptide fluorescence, pooled mixtures; in the data active means inhibition above about 32%, passing the limit was not always enough; inconclusive means no clear call, values can overlap the other calls;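 further: 0% = enzyme without compound and 100% = blank without enzyme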
Target sequence (P25774 115-331 limits assumed): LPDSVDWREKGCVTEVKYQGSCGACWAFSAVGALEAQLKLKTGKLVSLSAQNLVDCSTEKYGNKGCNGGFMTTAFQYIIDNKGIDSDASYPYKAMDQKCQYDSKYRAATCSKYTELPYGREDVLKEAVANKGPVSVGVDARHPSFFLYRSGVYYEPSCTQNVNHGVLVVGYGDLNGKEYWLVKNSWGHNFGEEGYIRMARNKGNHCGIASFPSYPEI
FXIa mix inh: blocks human factor XIa in pooled compound mixtures. P03951. AID 680. 0.19% of 62,000 active. inhibition, % at 5 µM. purified FXIa, fluorogenic substrate;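 further: each value is inhibition by a whole ten-compound pool holding the compound; 0% = enzyme with no mixture and 100% = wells lacking enzyme; strong numbers were not always called active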
CatL block: inhibitors of human cathepsin L. purified cathepsin L, fluorogenic substrate, fluorescence. inhibition, %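 (tested at 10 µM)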. 0.17% of 58,000 active; in the data active means inhibition above about 45%;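 further: 0% = enzyme with no compound and 100% = no enzyme blank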
Target sequence (P07711 114-288 limits assumed): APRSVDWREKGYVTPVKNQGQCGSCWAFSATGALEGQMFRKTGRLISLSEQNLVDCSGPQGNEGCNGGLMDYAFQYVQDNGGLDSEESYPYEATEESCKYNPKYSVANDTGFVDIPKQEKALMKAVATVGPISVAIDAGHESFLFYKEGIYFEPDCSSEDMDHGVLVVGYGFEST
Target sequence (P07711 292-333 limits assumed): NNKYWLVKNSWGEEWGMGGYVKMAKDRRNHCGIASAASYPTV
The depositor's hits bear a star; u = inconclusive; x = no result given. Unless noted, no stated cut-off is given here; in the data, active means inhibition above about 20% (passing the limit was not always enough); inactive means the rest. This is a subset; count on the stated rates, not on these rows.

Every second line gives: FXIIa inh mix, CatG inh, C1s block, JNK3 blocker, CatS inh, FXIa mix inh, CatL block
- CCOC(=O)C1CCN(C(=O)COC(=O)COc2ccccc2OC)CC1
 : 30, 9, 3, 0, 10, -1, x
- CCOC(=O)C1CCN(C(=O)COc2cc(C)c(Br)cc2C)CC1
 : 4, 8, 1, 4, 2, 2, 8
- COc1nc(OC)nc(N2CCC(C(=O)NCc3ccco3)CC2)n1
 : 7, 10, 5, 2, u, -2, -14
- COc1cccc(NC(=O)CNC(=O)c2cccs2)c1
 : 7, 8, 16, 7, -13, 8, -8
- CCn1c(SCC(=O)Nc2nccs2)nnc1-c1ccncc1
 : 1, 1, 0, -3, 2, 4, 5
- Cc1cc(NC(=O)c2ccc3nc(-c4ccccc4)c(-c4ccccc4)nc3c2)no1
 : 1, 11, -5, 2, 10, 1, 14
- C=CCn1c(SCc2ccc(OC)cc2)nnc1-c1cccnc1
 : 12, 7, -9, -3, -1, 0, x
- COc1cc(OC)cc(C(=O)Nc2ncc3c(n2)CC(C)(C)CC3=O)c1
 : 16, -2, -2, 1, 12, 14, 24
- CCOC(=O)C1CCN(C(=O)COc2cc(C)c(Br)c(C)c2)CC1
 : 5, 5, 0, 7, -4, -2, -12
- O=C(Cn1nnc(-c2ccncc2)n1)N1CCc2ccccc21
 : -5, -2, 0, 1, -5, 1, -1

The final 3 records of the section above are carried over, then new ones follow.
Every second line gives: FXIIa inh mix, CatG inh, C1s block, JNK3 blocker, CatS inh, FXIa mix inh, CatL block
- COc1cc(OC)cc(C(=O)Nc2ncc3c(n2)CC(C)(C)CC3=O)c1
 : 16, -2, -2, 1, 12, 14, 24
- CCOC(=O)C1CCN(C(=O)COc2cc(C)c(Br)c(C)c2)CC1
 : 5, 5, 0, 7, -4, -2, -12
- O=C(Cn1nnc(-c2ccncc2)n1)N1CCc2ccccc21
 : -5, -2, 0, 1, -5, 1, -1
- C=CCn1c(SCC(=O)NC2CCCCC2)nnc1C(C)NC(=O)c1cccs1 (stereo not given)
 : 4, -2, -53, 1, 1, -6, 10
- CCC(CC)c1nc(NCCC(=O)O)c2ccccc2n1
 : -2, -1, 0, 2, 11, 2, 7
- O=C(COC(=O)c1cccs1)NCc1ccc2c(c1)OCO2
 : 4, -4, -17, 1, -1, -3, 4
- Nc1c(C(=O)Nc2ccccc2)sc2nc(-c3ccco3)ccc12
 : -5, 9, -9, 1, -2, 1, -100
- Cc1cc(C)cc(-n2nnnc2SCC(=O)Nc2cccc(NC(=O)c3ccco3)c2)c1
 : 10, 2, 2, 0, -4, 12, -5
- CC(=O)Nc1ccc(C(=O)c2ccccc2)cc1
 : 3, -11, -42, 5, -5, 3, 2
- COC(=O)c1c(NC(=O)CSc2nnnn2-c2ccc3c(c2)OCO3)sc(C)c1C
 : -15, 10, 7, 0, 13, 6, 28
- COC(=O)c1nnn(-c2nonc2N)c1CSCCO
 : 3, 6, 6, 3, -3, 9, -4
- CC(C(=O)Nc1ncc2c(n1)CC(C)(C)CC2=O)N1C(=O)c2ccccc2C1=O (stereo not given)
 : 0, 7, 9, 1, 4, 6, 17
- CN1[C@@H]2CC(OC(=O)[C@H](CO)c3ccccc3)C[C@H]1[C@@H]1O[C@@H]12 (stereo not given in full)
 : 7, -7, -14, 6, -8, -6, 15

(continued)
Every second line gives: FXIIa inh mix, CatG inh, C1s block, JNK3 blocker, CatS inh, FXIa mix inh, CatL block
- O=C(COC(=O)c1ccccn1)Nc1cccc(Cl)c1
 : 11, 7, 12, 0, -9, 6, 5
- COc1ccc2cc3cc(C(=O)Nc4ccc5c(c4)OCCO5)oc3nc2c1
 : 7, 11, 8, 1, 7, 5, x
- COc1ccc(Br)cc1CNC(=O)CCc1nc(-c2ccccc2F)no1
 : 6, -9, -7, 1, 14, 4, 5
- COc1ccc2cc([C@H](C)C(=O)O)ccc2c1
 : -2, -7, -105, -1, -14, -17, 13
- CCc1cc2c(N[C@@H](C)C(=O)O)ncnc2s1
 : -19, 7, 4, 1, -3, 1, -1
- CCOc1ccc(N=CC2=C(O)CC(C)(C)CC2=O)cc1
 : 2, -1, -5, -8, 7, 7, 14
- CNC(=O)N(O)C1N(C)C(=O)N(Cc2ccccc2)C1(C)C (stereo not given)
 : 10, 9, 14, 5, -1, 2, 7
- COc1ccc(-c2cc3nc4c(c(N5CCC6(CC5)OCCO6)n3n2)CCCC4)cc1
 : 15, -2, -37, -5, -7, 0, -38
- O=C(Nc1ccncc1)c1cncc(Br)c1
 : 0, 6, 6, -2, 2, 10, -2
- COc1cccc2cc(-c3nnc(SCC(=O)Nc4nc(C)cs4)n3C)oc12
 : 4, -5, -23, -4, 4, -1, 18

Seven entries already listed, sorted by SMILES length, smallest number first:
Every second line gives: FXIIa inh mix, CatG inh, C1s block, JNK3 blocker, CatS inh, FXIa mix inh, CatL block
- O=C(Nc1ccncc1)c1cncc(Br)c1
 : 0, 6, 6, -2, 2, 10, -2
- COc1ccc2cc([C@H](C)C(=O)O)ccc2c1
 : -2, -7, -105, -1, -14, -17, 13
- CCOc1ccc(N=CC2=C(O)CC(C)(C)CC2=O)cc1
 : 2, -1, -5, -8, 7, 7, 14
- CNC(=O)N(O)C1N(C)C(=O)N(Cc2ccccc2)C1(C)C (stereo not given)
 : 10, 9, 14, 5, -1, 2, 7
- COc1ccc(Br)cc1CNC(=O)CCc1nc(-c2ccccc2F)no1
 : 6, -9, -7, 1, 14, 4, 5
- COc1ccc2cc3cc(C(=O)Nc4ccc5c(c4)OCCO5)oc3nc2c1
 : 7, 11, 8, 1, 7, 5, x
- COc1cccc2cc(-c3nnc(SCC(=O)Nc4nc(C)cs4)n3C)oc12
 : 4, -5, -23, -4, 4, -1, 18

Carrying on.
Every second line gives: FXIIa inh mix, CatG inh, C1s block, JNK3 blocker, CatS inh, FXIa mix inh, CatL block
- CC1CCCCN1C(=O)CN1C(=O)CN(C)C(=O)c2ccccc21 (stereo not given)
 : 0, 0, 2, -1, 4, 2, -2
- c1ccc(-c2nnc(-c3ccco3)n2-c2ccccc2)cc1
 : 3, 6, -19, 3, 9, 10, 13
- O=C(O)CCSc1nnc(-c2ccc3c(c2)OCO3)o1
 : 7, -2, 1, 3, 3, 4, 16
- Cn1c(=O)c2c(nc(-n3ccnc3)n2Cc2ccccc2)n(C)c1=O
 : 2, 2, 4, 4, 14, 3, 20
- Cc1ccc(Cn2c(-c3nonc3N)nc3ccccc32)cc1
 : 3, -6, -117, 2, -13, -14, 22
- Fc1cccc(-c2cc3nc4c(c(N5CCOCC5)n3n2)CCCC4)c1
 : 0, 0, -12, 3, 14, 7, 4
- COc1ccc2c(c1)c1ncn(Cc3ccco3)c(=O)c1n2C
 : -38, 4, -6, 19*, 0, -4, -115
- CCc1c(C(=O)NCc2ccc3c(c2)OCO3)[nH]c(C)c1C(C)=O
 : 1, -2, -18, 5, -7, -4, -4
- Fc1ccccc1N1CCN(C(c2ccncc2)c2nnnn2C2CCCC2)CC1 (stereo not given)
 : -4, -5, -2, 0, 19, 3, 2
- CCN1/C(=C/C(C)=O)Sc2ccc(OC)cc21
 : 7, 4, 4, -3, 9, 10, x

New compounds follow:
Every second line gives: FXIIa inh mix, CatG inh, C1s block, JNK3 blocker, CatS inh, FXIa mix inh, CatL block
- O=C(COc1ccccc1)NCc1ccc2c(c1)OCO2
 : 3, -15, -7, 3, -6, 1, -1
- COc1ccc(-n2nnnc2SCC(=O)NCc2ccco2)cc1OC
 : 4, 12, 11, -11, 4, 6, 15
- CCOC(=O)c1c(NC(=O)CSc2nnnn2-c2ccc3c(c2)OCO3)sc(C)c1C
 : 2, -1, 1, 1, -3, 8, x
- Cc1ccsc1C(=O)OCC(=O)NCc1ccc2c(c1)OCO2
 : 7, -1, 6, -3, 0, 6, 3
- COc1ccccc1-c1nnc2n1N=C(C(C)(C)C)CS2
 : 1, 8, 4, 9, -9, 5, -13
- COc1ccc(-c2nc(CSCC(=O)NCc3ccc4c(c3)OCO4)c(C)o2)cc1OC
 : -17, -1, 3, -3, 25, 9, -2
- O=c1c2[nH]c3ccccc3c2ncn1CCCn1ccnc1
 : 12, 11, 10, 5, -4, 8, -3
- CN/C=C1\C(=O)C(C)(C)Oc2ccc3ccc(=O)oc3c21
 : 2, 10, 23*, 0, 1, 13, 12
- Cn1c(SCC(=O)Nc2cccc(NC(=O)c3cccs3)c2)nnc1-c1ccncc1
 : 10, 5, -19, 0, -5, 2, 7
- FC(F)(F)c1cccnc1N1CCN(c2ncnc3nc[nH]c23)CC1
 : 5, -5, -18, -1, 23, 5, -1

The list goes on.
Every second line gives: FXIIa inh mix, CatG inh, C1s block, JNK3 blocker, CatS inh, FXIa mix inh, CatL block
- COc1ccc(Cl)cc1S(=O)(=O)n1nnc2ccccc21
 : 8, 10, 10, 5, -2, 6, 19
- COc1ccc(OC)c(NC(=O)c2ccc(CN3CCOCC3)cc2)c1
 : 1, 1, -28, -2, 0, 6, 4
- Cc1ccc(C(=O)Nc2ccncc2)o1
 : 4, 0, 3, 0, -5, -1, x
- O=C(CCCn1c(=S)[nH]c2ccccc2c1=O)N1CCCCC1
 : -20, 7, 9, -2, 14, -3, 11
- Cc1nc2ccc(N)cc2c(=O)n1Cc1ccc(Cl)cc1
 : 5, 3, -21, -6, -11, 3, 6
- COc1ccc(CCn2c(-c3ccco3)nc3oc4ccccc4c(=O)c3c2=O)cc1
 : -14, -3, 4, -7, 1, 2, 3
- Cc1ccc(-n2c(-c3ccncc3)nnc2-c2cccs2)cc1
 : 2, 5, -2, 5, -4, 4, -8
- COc1ccc2[nH]c3c(=O)n(CCCCC(=O)NCCN4CCCC4)c(=S)[nH]c3c2c1
 : 7, 12, 5, 1, 3, 2, 6
- Cc1ccc2cc3cc(C(=O)NCc4ccc5c(c4)OCO5)oc3nc2c1
 : 1, 9, 1, 5, -1, -1, x
- O=c1cc(-c2ccncc2)oc2ccccc12
 : 14, 0, -25, 0, 3, 7, 9

(cont.)
Every second line gives: FXIIa inh mix, CatG inh, C1s block, JNK3 blocker, CatS inh, FXIa mix inh, CatL block
- CC1CCN(c2nc(-c3ccncc3)nc3ccccc23)CC1
 : 12, -3, -15, -4, -4, 5, -8
- Cc1cccc(NC(=O)Nc2cc(C)on2)c1
 : 5, 2, 3, 4, 10, 8, 3
- COc1ccccc1CNc1ncnc2nc[nH]c12
 : 3, 6, 12, 1, 2, 10, 25
- Cc1nnc(NC(=O)C(C)Oc2ccc3c(C)cc(=O)oc3c2)s1 (stereo not given)
 : -12, -6, -17, -1, 30, 3, 15
- Cc1ccc(C(=O)Nc2nnc(-c3ccncc3)s2)o1
 : -1, 5, -30, 0, 1, 7, -4
- COc1ccc(CCNC(=O)Cn2cnc3c(cnn3-c3ccccc3Cl)c2=O)cc1OC
 : 5, 9, 12, 10, 15, 6, 14
- Cc1c(C(=O)N2CCCC2)nnn1-c1nonc1N
 : 14, -3, -114, -3, -10, -12, -5
- c1cncc(-c2nn3c(Cn4cnc5ccccc54)nnc3s2)c1
 : 4, -6, -3, 1, 2, 7, -1
- COc1ccc(NC(=O)C2CCN(S(=O)(=O)c3ccc(OC)c(OC)c3)CC2)c(OC)c1
 : 7, -8, -27, 1, 10, -7, x
- COc1ccc(-c2cc(C(F)(F)F)nc(SCCC(=O)NCc3ccco3)n2)cc1
 : 0, 14, 13, -5, 13, 5, -5
- CCCCc1ccc(NC(=O)N[C@H](C(=O)O)C(C)C)cc1
 : -19, 7, 5, -2, -18, 7, -1
- CC1(C)CC(=O)C(C=Nc2ccccc2)=C(O)C1
 : 0, 8, 1, -7, 2, -1, -5
- Nc1ncnc2c1cnn2-c1ccccc1
 : 1, 0, -61, 13, -4, -8, -6

Assay outcomes: PubChem BioAssay, several laboratories
